D2 PAM = human D2 receptor positive allosteric modulation. potentiation, % (test concentration not listed). DiscoveRx D2 beta-arrestin cells, luminescence, 90 min; 100% = 57 uM dopamine signal. AID 624464. actives 0.23% (n = 360,000). P14416; active = potentiation of 50% or more; inconclusive = 30% to 50%; inactive = 30% or less;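 also: compound concentration not given in the record; tested on top of an EC20 dose of dopamine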
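PathHunter beta-arrestin assay in DiscoveRx D2 cells. Compounds were added with an EC20 of dopamine (50 nM final) for 90 min at 37 deg C. Luminescence was read 1 h after detection reagent, with 57 uM dopamine as the EC100 control.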
Six1-Eya2 inh = inhibitors of human Six1/Eya2 interaction. Q15475+O00167. AlphaScreen GST-Six1/His-Eya2 binding, biochemical; hits give low values; control for the full effect not named in the record. activity change, % (no concentration beside the values). actives 0.56% (n = 360,000); in the data active = activity change below about -65%; inconclusive = about -30% to -65%; inactive = above about -30%; also: % is scaled to controls: 0 for no effect and ±100 for the full control effect; compound concentration not given in the record
Target sequence (O00167 whole entry, looked up): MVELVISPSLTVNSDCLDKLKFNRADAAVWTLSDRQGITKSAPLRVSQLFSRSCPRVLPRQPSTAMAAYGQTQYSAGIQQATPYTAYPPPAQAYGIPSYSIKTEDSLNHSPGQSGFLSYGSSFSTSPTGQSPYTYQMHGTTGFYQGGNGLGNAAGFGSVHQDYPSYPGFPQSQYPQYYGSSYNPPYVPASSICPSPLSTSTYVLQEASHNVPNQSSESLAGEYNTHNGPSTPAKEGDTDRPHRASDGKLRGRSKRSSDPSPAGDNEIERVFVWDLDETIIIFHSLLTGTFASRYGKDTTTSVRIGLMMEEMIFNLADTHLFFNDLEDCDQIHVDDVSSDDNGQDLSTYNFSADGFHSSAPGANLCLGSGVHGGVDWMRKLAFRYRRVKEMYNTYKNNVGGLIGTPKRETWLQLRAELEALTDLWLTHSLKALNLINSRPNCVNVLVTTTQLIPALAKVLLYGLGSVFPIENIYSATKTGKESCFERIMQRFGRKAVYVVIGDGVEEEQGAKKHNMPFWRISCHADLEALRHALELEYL
Target sequence (Q15475 whole entry, looked up): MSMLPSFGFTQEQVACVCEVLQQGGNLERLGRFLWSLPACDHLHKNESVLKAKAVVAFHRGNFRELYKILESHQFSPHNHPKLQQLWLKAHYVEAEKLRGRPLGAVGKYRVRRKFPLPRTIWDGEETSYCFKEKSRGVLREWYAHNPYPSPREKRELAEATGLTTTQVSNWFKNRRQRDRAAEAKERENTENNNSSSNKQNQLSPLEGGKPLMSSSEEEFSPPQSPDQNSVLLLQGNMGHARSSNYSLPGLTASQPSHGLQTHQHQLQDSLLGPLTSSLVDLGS
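Homogeneous AlphaScreen proximity assay pairing GST-Six1 with His-tagged Eya2 (added as 5X mix: 250 nM and 500 nM) in 50 mM Tris pH 8.0, 300 mM NaCl, 1 mM TCEP. Glutathione donor and nickel acceptor beads; 1 h, 37 °C, dark.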
CtBP-E1A inh = blocks the CtBP interaction with E1A. AlphaScreen GST-E1A/His-CtBP binding, 1536-well; hits give low values; control for the full effect not named in the record. actives 0.49% (n = 340,000). activity change, % (test concentration not listed); in the data active means activity change below about -65%; inconclusive means about -30% to -65%; inactive means above about -30%; also: % is scaled to controls: 0 for no effect and ±100 for the full control effect; compound concentration not given in the record
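In 5 uL wells, 23 nL compound meets equimolar GST-E1A and His-CtBP (5X stock 125 nM each) for 2 h, 37 °C. Beads (5X, 50 ug/mL) then 1 h, 37 °C, dark.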
PINK1 expr mod = modulators of PINK1 expression; actives 0.2% (n = 410,000); AID 624263; Potency, µM (doses to about 76.6 µM), inactives show at the top dose activation (PINK1 increase), hits mostly activators; PINK1 immunofluorescence, high-content cytometry, 24 h; active = well fitted activation curve with a large enough effect; inconclusive = small, poorly fitted or top-dose-only effect; inactive = flat fitted curve, though single readings scatter; cell line not stated here;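 also: potency is read from the fitted curve at half-maximal effect; % of control where 0% means no effect; nearly all actives have a fitted effect of over 65% in size; a mitochondrial uncoupler was the plate control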
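Fluorescence from anti-PINK1 antibody, together with nuclear and cell stains, was scanned on a laser-scanning cytometer. Before staining, stable-line cells were incubated 24 hours with compounds at 5 concentrations; primary antibody 12 h at 10 degrees C.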
TRPML1 ag = agonists of human TRPML1 channel. TRPML1-expressing cells, Ca2+ dye fluorescence, FDSS; host cell line not named in the record; reference of the full effect not given here. actives 0.12% (n = 410,000). activation, % (no concentration beside the values); in the data active = activation above about 50%; inconclusive = about 30% to 50%; inactive = below about 30%; also: 0% is about no effect; the text of the record puts the active cut at 80%
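Calcium fluorescence on an FDSS kinetic reader gave the read-out. Tet-induced TRPML1-DL cells were plated overnight, dye-loaded (Ca8 with quencher, 45-90 min, room temperature, dark), then read 110 s after compound addition, and again 110 s after 4uM final 54-4 (EC80).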
D2 agonist = agonists of human D2 dopamine receptor (beta-arrestin) | DiscoveRx PathHunter D2 beta-arrestin, luminescence, 90 min; 100% = 57 uM dopamine signal | activation, % (test concentration not listed) | actives 0.084% (n = 360,000) | AID 624465; in the data active = activation above about 40%; inconclusive = about 15% to 40%; inactive = below about 15%; also: compound concentration not given in the record; the text of the record calls up to 30% inactive
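DiscoveRx PathHunter D2 beta-arrestin cells (2,100/well) attached overnight, then compound-stimulated 90 min at 37 C in HBSS/10 mM HEPES/0.1% Tween-20 buffer; beta-galactosidase complementation read by luminescence after 1 h at ambient temperature. Dopamine 57 uM final (EC100) as control.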
* hit, by the source's call; ? = inconclusive; / = no result given; & = joins results of further samples; [ ] = remark or other dose.

The opening 2 compounds, ahead of the listing:
SMILES	D2 PAM	Six1-Eya2 inh	CtBP-E1A inh	PINK1 expr mod	TRPML1 ag	D2 agonist
O=C(N/N=C/c1ccc[nH]1)c1ccc(Cl)cc1	-15	7	7	1.0%	0.8	-1.1
Cc1nnsc1C(=O)NC(C)c1ccccc1 (configuration not stated)	-5	2	7	1.9%	-0.4	6.5

The whole of this part, previewed entries included:
SMILES	D2 PAM	Six1-Eya2 inh	CtBP-E1A inh	PINK1 expr mod	TRPML1 ag	D2 agonist
O=C(N/N=C/c1ccc[nH]1)c1ccc(Cl)cc1	-15	7	7	1.0%	0.8	-1.1
Cc1nnsc1C(=O)NC(C)c1ccccc1 (configuration not stated)	-5	2	7	1.9%	-0.4	6.5
Cn1cnnc1SCC(=O)N1CCc2ccccc21	-7	5	6	-0.6%	-0.5	-2.2
CCOc1cccc(CN2CCCC(CCC(=O)NCc3ccccc3F)C2)c1O (configuration not stated)	0	-3	0	-1.1%	0.5	14
CCc1c(C)nc(N2CCOCC2)[nH]c1=O	2	3	2	-4.9%	-0.3	2.5
CC(CCCC(C)(C)O)NCc1cn[nH]c1-c1ccc2c(c1)OCO2 (configuration not stated)	0	-2	-13	-1.5%	-0.2	-1.9
CN1CCN(C(=O)C2=C[C@H](c3ccccc3)C[C@H](OCc3ccc(CO)cc3)O2)CC1	-19	-3	4	-0.5%	-0.2	-3.2
COc1ccc(Nc2nc(N)nc(CSC(=S)N3CCCCC3C)n2)cc1 (configuration not stated)	-7	-14	-13	4.2%	0.1	1.0
CCn1nnc(-c2ccccc2NC(=O)C(F)(F)F)n1	-19	11	5	/	0.7	-2.4
O=C(Cn1c(/C=C/c2ccccc2)nc2ccccc21)Nc1ccc(F)cc1	-11	3	4	8.0%	-0.5	-3.3
CC(=O)N1CCc2c(sc(NC(=O)c3ccc([N+](=O)[O-])o3)c2C#N)C1	-5	-13	-28	-1.2%	0.0	0.1
Cc1sc2nc(C3CCCCC3)nc(SCC(=O)N3CC(=O)Nc4ccccc43)c2c1C	-8	4	-6	1.2%[38.3 µM]	2.8	-0.5
O=C(CN(C(=O)c1csnn1)c1cccc2ccccc12)NC1CCCC1	-8	8	0	-1.2%	0.4	-1.3
NC(=O)C1CCN(C(=O)c2ccc(NS(=O)(=O)c3ccc(Br)s3)cc2)CC1	8	9	0	2.7%	0.2	1.3
COc1ccc(C(C)=O)cc1COC(=O)Cc1cc(OC)c(OC)c(OC)c1	0	-4	1	-1.7%	-0.6	1.6
CCCN1CCN(CCCNC(=O)c2ccccc2NC(=O)C2=C(C)OCCS2)CC1	-17	-1	4	-0.4%	-0.8	4.6
CCc1ccc(NC(=O)Nc2ccsc2C(=O)OC)cc1	-9	-4	2	-1.6%	1.1	5.0
OC[C@@H]1CN(Cc2ccc(Cl)cc2)C[C@H](n2cnc3c(Nc4ccccc4)ncnc32)O1	18	-5	0	1.4%	0.8	5.6
Cc1ccc(C(=O)C[n+]2ccc(Cc3ccccc3)cc2)cc1	-15	5	13	-0.1%	-0.2	-2.7
COc1cccc(CN(Cc2cccnc2)S(=O)(=O)c2ccc(-n3cnnn3)c(C)c2)c1OC	-16	-1	10	?	-0.6	0.5
Cc1ccc(C)c(NC(=S)N2CCN(S(=O)(=O)c3ccccc3)CC2)c1	-5	10	-5	0.2%	-0.1	-7.0
O=c1c(Cc2c(F)cccc2Cl)c(O)ccn1CCCn1ccnc1	-4	11	/	0.6%	0.4	-1.1
CCNC(=O)Cc1c(OC)ccc2cc(Br)ccc12	1	-1	/	-0.5%	-1.1	-0.4
Cn1cc(C(=O)NC2CCCCCC2)c(=O)c2cc(S(=O)(=O)N3CCCC3)ccc21	-14	7	20	3.0%	0.3	-4.8
COc1ccc2oc(-c3ccco3)cc(=O)c2c1	1	-5	-7	-0.3%	/	-0.6
Cc1cc2c(cc(C(=O)OC(C(=O)NC3CCCCC3)C(C)C)n2C)o1 (configuration not stated)	-3	0	/	3.4%	1.2	-0.7
CC(=O)Nc1ccc(SCc2ncc(-c3ccccc3)o2)cc1	-9	5	2	-2.2%	-0.5	-1.2
Cc1c(NC(=O)N2CCCCCC2)c(=O)n(-c2ccccc2)n1C	-11	-9	-1	-1.9%	-0.5	-6.1
CCCNC(=O)COC(=O)c1cc(SC)ccc1Cl	2	-11	1	-1.2%	0.4	-3.5
CN(C)c1ccc(NC(=O)C(=O)NCCOc2ccccc2)cc1	20	9	8	5.4%	-0.5	5.1
CCOC(=O)c1c(NC(=O)Cc2cccs2)sc(C)c1C	-7	9	9	/	1.9	4.1
CC(C)N1CCc2c(sc(NC(=O)C3CCCCC3)c2C(N)=O)C1	-10	2	2	2.1%	0.9	-4.7
CCC1(C(=O)NC(=Nc2ccccc2)Nc2ccccc2)CCOC1=O (configuration not stated)	-20	1	9	3.0%	-0.5	-1.3
O=C1NC(C(F)(F)F)(C(F)(F)F)N=C2SC=CN12	0	2	/	4.1%	-0.6	-6.6
Cc1ccc(-n2c(=S)sc3c(=O)n(-c4ccccc4F)c(SCC(=O)O)nc32)cc1C	-12	-6	-28	1.7%	0.6	-1.9
FC(F)(F)c1cnc(N2CCSCC2)c(Cl)c1	-7	38	3	6.5%	-0.5	-6.1
CC(=O)COc1ncn(-c2ccccc2)n1	-11	3	3	-1.3%	-0.5	-2.0
Cc1ccc(N2CC(C)Cn3c2nc2c3c(=O)n(CC(=O)OCc3ccccc3)c(=O)n2C)cc1C (configuration not stated)	0	-1	1	-1.1%[38.3 µM]	1.2	-2.6
Cc1cc(C)cc(-n2ccn(CC(=O)NCCc3ccccc3)c(=O)c2=O)c1	-7	-1	-9	-0.5%&4.5%	1.2&-0.8	1.9
CCNc1cc(=O)n(C)c(=O)n1C	-12	6	-5	-2.8%	-0.5	3.5

14 of the compounds above, bar-delimited.
Compound | D2 PAM | Six1-Eya2 inh | CtBP-E1A inh | PINK1 expr mod | TRPML1 ag | D2 agonist
Cc1ccc(C)c(NC(=S)N2CCN(S(=O)(=O)c3ccccc3)CC2)c1 | -5 | 10 | -5 | 0.2% | -0.1 | -7.0
O=c1c(Cc2c(F)cccc2Cl)c(O)ccn1CCCn1ccnc1 | -4 | 11 | / | 0.6% | 0.4 | -1.1
CCNC(=O)Cc1c(OC)ccc2cc(Br)ccc12 | 1 | -1 | / | -0.5% | -1.1 | -0.4
Cn1cc(C(=O)NC2CCCCCC2)c(=O)c2cc(S(=O)(=O)N3CCCC3)ccc21 | -14 | 7 | 20 | 3.0% | 0.3 | -4.8
COc1ccc2oc(-c3ccco3)cc(=O)c2c1 | 1 | -5 | -7 | -0.3% | / | -0.6
Cc1cc2c(cc(C(=O)OC(C(=O)NC3CCCCC3)C(C)C)n2C)o1 (configuration not stated) | -3 | 0 | / | 3.4% | 1.2 | -0.7
CC(=O)Nc1ccc(SCc2ncc(-c3ccccc3)o2)cc1 | -9 | 5 | 2 | -2.2% | -0.5 | -1.2
Cc1c(NC(=O)N2CCCCCC2)c(=O)n(-c2ccccc2)n1C | -11 | -9 | -1 | -1.9% | -0.5 | -6.1
CCCNC(=O)COC(=O)c1cc(SC)ccc1Cl | 2 | -11 | 1 | -1.2% | 0.4 | -3.5
CN(C)c1ccc(NC(=O)C(=O)NCCOc2ccccc2)cc1 | 20 | 9 | 8 | 5.4% | -0.5 | 5.1
CCOC(=O)c1c(NC(=O)Cc2cccs2)sc(C)c1C | -7 | 9 | 9 | / | 1.9 | 4.1
CC(C)N1CCc2c(sc(NC(=O)C3CCCCC3)c2C(N)=O)C1 | -10 | 2 | 2 | 2.1% | 0.9 | -4.7
CCC1(C(=O)NC(=Nc2ccccc2)Nc2ccccc2)CCOC1=O (configuration not stated) | -20 | 1 | 9 | 3.0% | -0.5 | -1.3
O=C1NC(C(F)(F)F)(C(F)(F)F)N=C2SC=CN12 | 0 | 2 | / | 4.1% | -0.6 | -6.6

Continued.
SMILES	D2 PAM	Six1-Eya2 inh	CtBP-E1A inh	PINK1 expr mod	TRPML1 ag	D2 agonist
C[C@@H]1CN([C@H](C)CO)C(=O)CCCn2nncc2CO[C@H]1CN(C)C(=O)OCc1ccccc1	1	3	0	1.1%	-0.3	-7.4
Cc1cc(C)c(-c2cc(NC(=O)COC(=O)c3ccc(NC(=O)CC#N)cc3)n(-c3ccccc3)n2)cc1C	8	8	-25	5.7%	0.0	1.9
O=S(=O)(Cc1cccc(C(F)(F)F)c1)c1ncn[nH]1	-4	-1	13	-0.8%	0.1	0.2
CCOC(=O)Cn1c(=NC(=O)CSC(C)=O)sc2cc(OC)ccc21	-27	10	-1	6.7%	1.2	-3.2
COc1cc(CN2CCSCC2)c([N+](=O)[O-])cc1OC	13	-2	7	-0.4%	-1.0	-2.4
Cc1cc(C(=O)CN2C(=O)C(=O)N(Cc3ccccc3)C2=O)c(C)n1Cc1ccccc1	-12	-14	5	2.3%	0.3	0.7
Cc1cc(-c2ccco2)n(CC(=O)NCCN(C)C)n1	-7	10	0	-1.2%	-0.2	-5.3
COc1ccccc1NC(=O)NC1(C(=O)N2CCOCC2)CCCCC1	-4	1	3	4.7%	-0.1	1.4
COCCNC(=O)COc1cc(=O)n(C)c2ccccc12	1	10	-2	-3.9%	-0.7	0.9
CN(C(=O)COC(=O)c1cc[n+]([O-])cc1)c1ccccc1	8	7	11	0.7%	-0.5	-2.2
CC(C)N(C(=O)C[n+]1ccc(/C=N/O)cc1)C(C)C	-5	4	-2	-0.9%	3.0	2.5
C/C(=N\NC(=O)c1cccc(S(=O)(=O)N2CCOCC2)c1)c1ccc(C#N)cc1	-18	3	7	0.8%	-0.3	-4.4
O=C(CCN1C(=O)c2ccccc2S1(=O)=O)Nc1ccc(F)c(F)c1F	6	9	-11	4.8%	-0.3	-4.5
COCCCNC(=O)c1ccc2c(=O)n(Cc3ccc(Cl)cc3)c(=S)[nH]c2c1	-4	9	/	3.4%	1.2	-1.6
CC(C)N(C(=O)NC(=O)NCC1CCCO1)S(C)(=O)=O (configuration not stated)	7	-1	-15	/	-0.3	-1.5
Clc1cccc(-c2nc3ccc(Br)cn3c2Cc2ccsc2)c1	0	0	2	8.1%	-0.6	2.9
Cc1ccc(C(C)C)c(OCCn2c(=O)oc3ccccc32)c1	28	12	61	19%	1.3	-3.5
C/C(CC(=O)NCc1ccc(Cl)cc1)=N\NC(=O)COc1ccc(C)cc1Br	-8	-11	-15	6.8%	1.0	1.5
CC(=O)c1ccc(CCCCc2ccc(C(C)=O)cc2)cc1	6	11	12	-2.7%	2.9	5.8
Cc1c(NS(=O)(=O)c2cc(C(=O)N(C)Cc3ccccc3)ccc2Cl)c(=O)n(-c2ccccc2)n1C	-21	-4	-2	-0.2%	0.1	-3.0
Cc1cc(C)c2c(=O)[nH]c(SCC(=O)Nc3cccc(S(=O)(=O)N(C)C)c3)nc2n1	-1	-30	-2	3.5%	-0.1	5.2
C=CCn1c(SCc2csc(C)n2)nc2sc3c(c2c1=O)CCCCC3	-8	-1	8	2.8%	1.8	-1.5

Compound activity from PubChem.
